Screening results: PubChem, Johns Hopkins Ion Channel Center
KCNQ2 block: KCNQ2 channel blockers in CHO-K1 cells – cell-based, FluxOR thallium flux, B-score, primary screen (AID 2156); 20 min; hits give low values; only compounds with negative scores are shown here; some inactives read as strong as hits; B-score at 10 µM; hit rate 1.1% among 310,000; O88943;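 active = fluorescence ratio B-score at most minus 3 library SDs, with starting brightness B-score within 2 library SDs, cut at about -5.5 in these data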
Target sequence (O88943 whole entry, looked up): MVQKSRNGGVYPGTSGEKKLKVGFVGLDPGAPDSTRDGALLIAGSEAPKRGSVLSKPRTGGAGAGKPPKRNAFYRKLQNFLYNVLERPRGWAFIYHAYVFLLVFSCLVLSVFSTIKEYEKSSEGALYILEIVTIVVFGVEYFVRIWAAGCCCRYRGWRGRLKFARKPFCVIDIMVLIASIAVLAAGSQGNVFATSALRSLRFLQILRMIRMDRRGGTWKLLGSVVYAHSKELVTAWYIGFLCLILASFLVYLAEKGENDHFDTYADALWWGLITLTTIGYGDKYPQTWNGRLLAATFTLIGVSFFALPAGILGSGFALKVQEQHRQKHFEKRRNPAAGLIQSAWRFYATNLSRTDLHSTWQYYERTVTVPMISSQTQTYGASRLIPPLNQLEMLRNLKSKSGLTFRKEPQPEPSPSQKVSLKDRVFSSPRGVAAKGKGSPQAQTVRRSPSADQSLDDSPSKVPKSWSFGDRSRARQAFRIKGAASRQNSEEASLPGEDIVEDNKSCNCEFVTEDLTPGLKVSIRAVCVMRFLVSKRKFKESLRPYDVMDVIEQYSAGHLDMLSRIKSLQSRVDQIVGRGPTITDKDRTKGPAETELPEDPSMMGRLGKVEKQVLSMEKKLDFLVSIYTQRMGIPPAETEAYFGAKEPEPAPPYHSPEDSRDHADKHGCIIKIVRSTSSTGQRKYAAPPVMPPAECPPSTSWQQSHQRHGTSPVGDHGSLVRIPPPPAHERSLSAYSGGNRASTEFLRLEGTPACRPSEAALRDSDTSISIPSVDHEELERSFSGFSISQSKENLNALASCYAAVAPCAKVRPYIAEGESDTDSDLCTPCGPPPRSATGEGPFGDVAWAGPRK
KCNQ2 block baseline: recorded beside KCNQ2 block, whose call it bears; B-score; measured here: initial fluorescence intensity artifact check;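 brightness before thallium and not channel activity; 0 = typical well and far values either way flag optical interference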
The depositor's hits bear a star; i = inactive. An excerpt; the hit share may differ from the screen's.

Values run as follows: KCNQ2 block	KCNQ2 block baseline
- O=C(NCCc1ccc(Cl)cc1)c1cccs1
 : i	0.22
- CCn1cc(C(=O)NCCCN2CCC(C)CC2)c(=O)c2cc(S(=O)(=O)N3CCCC3)ccc21
 : i	0.45
- COc1ccc(OC)c(NC(=O)COc2ccc(S(=O)(=O)N3CCCC3)cc2)c1
 : i	-0.1
- CCC1CC(/C(C)=N/NC(N)=O)OC1=O (configuration not stated)
 : i	0.27
- CCn1cc(C(=O)O)c(=O)c2cc(F)c(N3CCN(S(=O)(=O)c4ccc(NC(C)=O)cc4)CC3)cc21
 : i	1.1
- CC(C)[C@H](NC(=O)c1ccc(Cl)c([N+](=O)[O-])c1)C(=O)NCc1ccc(Cl)cc1Cl
 : i	1.8
- Cc1nn(-c2ccccc2)c(N2CCCC2)c1/C=N/NC(=O)c1cc(-c2cccs2)nc2ccccc12
 : i	-2.4
- Cc1ccc(Cl)cc1N1CCN(C(=O)C2(S(=O)(=O)c3ccc(Cl)cc3)CC2)CC1
 : -6.2*	-1.4*
- O=C(CNC(=O)N1CC(=O)Nc2ccccc21)Nc1cc(Cl)ccc1Cl
 : i	2.4
- CCOC(=O)C1=C(N)OC2=C(C(=O)CC(C)(C)C2)C1C1CCCCC1 (configuration not stated)
 : -7.5*	0.81*
- CC1CN(C(=O)COC(=O)c2ccc(NC(=O)CC#N)cc2)CC(C)O1 (configuration not stated)
 : i	-2.2
- CC(=O)N(CCc1ccccc1C)Cc1cc2ccc(C)cc2[nH]c1=O
 : i	2.8
- CC(=O)Nc1ccc(S(=O)(=O)N2CCN(C(=O)C3COc4ccccc4O3)CC2)cc1 (configuration not stated)
 : i	0.19
- NC(=O)[C@@H]1CCCN1Cc1nc(-c2cccs2)no1
 : i	0.25
- CN(C)c1ccc(CN(C(=O)c2cc3ccccc3oc2=O)C2CCS(=O)(=O)C2)cc1 (configuration not stated)
 : i	-0.73
- Cc1nn(-c2ccccc2)c(N)c1C(c1ccccc1)c1c(C)nn(-c2ccccc2)c1N
 : i	0.02
- CC(=O)Nc1ccc(S(=O)(=O)N(C)c2ccccc2)cc1
 : i	2.1
- CCC(=O)NC(=S)Nc1ccc(NC(=O)c2ccccc2[N+](=O)[O-])cc1
 : i	1.6
- C[C@@H](C(=O)Nc1nc(-c2ccccn2)cs1)N1C(=O)C2CCCCC2C1=O (some centres not stated)
 : i	-0.01
- O=C(NCc1ccccc1)C1=C[C@H](c2csc3ccccc23)C[C@H](OCc2ccc(CO)cc2)O1
 : i	1.3
- CCN(CC)S(=O)(=O)c1ccc(N2CCOCC2)c(NC(=O)c2ccc3c(c2)OCCO3)c1
 : i	-0.01
- O=C(O)C1CCC(N2C(=O)C3C4CCC(C4)C3C2=O)CC1 (configuration not stated)
 : i	2.1
- O=C(Nc1ccc2c3c(cccc13)CC2)c1ccc(Br)o1
 : i	0.06
- CN(C)S(=O)(=O)c1ccc2c(c1)Cc1cc(S(=O)(=O)N(C)C)ccc1-2
 : i	0.09
- O=c1cc(Cc2nnc(SCc3ccccc3)n2-c2ccc(Cl)cc2)[nH]c(=O)[nH]1
 : i	0.89
- O=C(COC(=O)c1ccccc1C(=O)N1CCN(c2ccccc2)CC1)Nc1ccc(F)cc1
 : i	0.51
- CC(NC(=O)c1ccco1)C(c1cccs1)N1CCN(c2ccccc2)CC1 (configuration not stated)
 : i	-0.65
- CN(CC(=O)NCc1ccccc1)Cc1ccc(Cl)cc1
 : i	0.53
- COc1ccc(CC(CC(=O)O)C(=O)NCc2ccccc2)cc1 (configuration not stated)
 : i	0.55
- Clc1cccc(-c2nnc(SC/C=C/c3ccccc3)n2Cc2ccco2)c1
 : -8.3*	-0.41*
- N=c1oc2ccc(Cl)cc2cc1C(=O)NC1CCCCCC1
 : i	0.97
- COC(=O)C1=C(C)N(Cc2ccccc2)C(=NCC(C)C)N[C@H]1c1ccccc1
 : i	2.6
- O=C(NCc1ccccc1)/C(=C\c1ccc([N+](=O)[O-])cc1)NC(=O)c1ccco1
 : i	0.21
- Cc1c(Cl)ccc(S(=O)(=O)NCCN2CCOCC2)c1Cl
 : i	-0.79
- COc1cc(-c2n[nH]c(=S)n2-c2cc(C(F)(F)F)ccc2Cl)cc(OC)c1OC
 : i	0.01
- O=C(CN1CCCCCC1)Nc1ccccc1Cl
 : i	0.07
- O=C(NCCNC(=O)c1cccs1)c1ccco1
 : i	0.12
- CCCn1c(=O)c2ccccc2n2c(SCC(=O)c3ccccc3)nnc12
 : i	-0.34
- CC(=O)c1ccc(N(CC(=O)NC2CCCCC2)C(=O)CNC(=O)c2cccs2)cc1
 : i	1.1
- CCCc1cc(=O)oc2cc(OCC(=O)NCC(O)c3ccccc3)ccc12 (configuration not stated)
 : i	0.51
- Cc1ccc(CNS(=O)(=O)c2ccc(Br)s2)cc1
 : i	0.86
- COc1ccc(-c2cc3nc(-c4ccccc4)cc(N4CCC(O)CC4)n3n2)cc1
 : i	0.47
- COc1ccccc1C(=O)N/C(=C/c1cccc([N+](=O)[O-])c1)C(=O)Nc1cccc(C(=O)O)c1
 : i	1.3
- CS(=O)(=O)c1cccc(C(=O)NC(c2ccccc2)c2ccccc2)c1
 : i	-0.27
- O=C1NC(=O)C(c2ccccc2[N+](=O)[O-])=C1Nc1ccc(O)c(Cl)c1
 : i	-1.4
- Cc1c(NC(=O)CSc2nnc3sc4ccccc4n23)c(=O)n(-c2ccccc2)n1C
 : i	-1.7
- CC1CCCCN1CCNC(=O)C1CCCN(S(=O)(=O)c2cccc3nsnc23)C1 (configuration not stated)
 : i	-0.01
- O=C1CN(C(=O)N[C@@H](Cc2ccccc2)C(=O)N[C@@H](Cc2ccccc2)C(=O)O)c2ccccc2N1
 : i	0.54
- Cn1c(=O)n(C)c(=O)n(CC(=O)N2CCCCC2)c1=O
 : i	0.33
- CC(OC(=O)c1cnc2ccccc2n1)c1ccccc1Cl (configuration not stated)
 : i	-0.94
- O=C(NCc1ccncc1)NC12CC3CC(CC(C3)C1)C2
 : i	-0.31
- CCOc1cc(N2CCOCC2)c(OCC)cc1NC(=O)CSc1ncccn1
 : i	0.64
- O=C(Cn1cnc2c(oc3ccccc32)c1=O)N1CCCC1
 : i	-0.11
- COc1ccc(N2CCN(C(=O)CCc3nnc4ccc(N5CCOCC5)nn34)CC2)cc1
 : i	0.17
- Cc1ccc(NC(=O)C2C3C=CC(O3)C2C(=O)O)cc1C (configuration not stated)
 : i	0.6
- Cc1cc(NC(=O)c2ccccc2O)nc(C)n1
 : i	0.07
- Cc1ccc(S(=O)(=O)/C(C#N)=C/c2c(N3CC(C)OC(C)C3)nc3c(C)cccn3c2=O)cc1 (configuration not stated)
 : i	1.7
- O=C(NCCCN1CCN(c2ccccc2)CC1)Nc1ccccc1C(F)(F)F
 : i	0.01
- NC1=NC(=O)C(Cc2ccc(Br)cc2)S1 (configuration not stated)
 : i	-0.8
- CC(=O)c1cccc(NC(=O)c2ccc(C)o2)c1
 : i	1.3

Some of these compounds in order of heavy-atom count, rising.
Values run as follows: KCNQ2 block	KCNQ2 block baseline
- NC1=NC(=O)C(Cc2ccc(Br)cc2)S1 (configuration not stated)
 : i	-0.8
- CC(=O)c1cccc(NC(=O)c2ccc(C)o2)c1
 : i	1.3
- Cn1c(=O)n(C)c(=O)n(CC(=O)N2CCCCC2)c1=O
 : i	0.33
- Cc1ccc(NC(=O)C2C3C=CC(O3)C2C(=O)O)cc1C (configuration not stated)
 : i	0.6
- N=c1oc2ccc(Cl)cc2cc1C(=O)NC1CCCCCC1
 : i	0.97
- O=C1NC(=O)C(c2ccccc2[N+](=O)[O-])=C1Nc1ccc(O)c(Cl)c1
 : i	-1.4
- CS(=O)(=O)c1cccc(C(=O)NC(c2ccccc2)c2ccccc2)c1
 : i	-0.27
- CCCn1c(=O)c2ccccc2n2c(SCC(=O)c3ccccc3)nnc12
 : i	-0.34
- CCCc1cc(=O)oc2cc(OCC(=O)NCC(O)c3ccccc3)ccc12 (configuration not stated)
 : i	0.51
- O=C(NCCCN1CCN(c2ccccc2)CC1)Nc1ccccc1C(F)(F)F
 : i	0.01
- CC1CCCCN1CCNC(=O)C1CCCN(S(=O)(=O)c2cccc3nsnc23)C1 (configuration not stated)
 : i	-0.01
- CC(=O)c1ccc(N(CC(=O)NC2CCCCC2)C(=O)CNC(=O)c2cccs2)cc1
 : i	1.1
- COc1ccc(N2CCN(C(=O)CCc3nnc4ccc(N5CCOCC5)nn34)CC2)cc1
 : i	0.17
- COc1ccccc1C(=O)N/C(=C/c1cccc([N+](=O)[O-])c1)C(=O)Nc1cccc(C(=O)O)c1
 : i	1.3
- O=C1CN(C(=O)N[C@@H](Cc2ccccc2)C(=O)N[C@@H](Cc2ccccc2)C(=O)O)c2ccccc2N1
 : i	0.54

The list goes on:
Values run as follows: KCNQ2 block	KCNQ2 block baseline
- NNC(=O)Cn1c(-c2ccccc2)cc(=O)n2ncnc12
 : i	-1.2
- CC(C)CN(C(=O)COC(=O)c1ccccc1SCC(=O)NC1CCCCCC1)C1CCS(=O)(=O)C1 (configuration not stated)
 : i	0.39
- COc1ccc(C(CNC(=O)Cc2cccs2)N(C)C)cc1 (configuration not stated)
 : i	-0.36
- CC(C)NC(=O)CN1C(=O)c2cccc3cccc1c23
 : i	1.2
- Cc1cc(=O)oc2c1c(C(F)(F)F)nn2-c1ccccc1
 : i	1.4
- COc1ccccc1NC(=O)CSc1nc2n[nH]c(C)c2c(=N)n1-c1ccccc1Cl
 : i	-1.5
- Cc1ccc(C(=O)COC(=O)C2CC3CCCC(C2)C3=O)cc1[N+](=O)[O-] (configuration not stated)
 : i	0.46
- Cc1occc1C(=O)NCc1ccc(C(=O)O)o1
 : i	0.8
- CCCOc1cccc(-c2cc(C(=O)N/N=C/c3cccnc3)c3ccccc3n2)c1
 : -5.8*	-0.04*
- O=C1CC(C(=O)Nc2cccc(F)c2)n2ncnc2N1 (configuration not stated)
 : i	-0.48
- O=C(/C=C/c1ccco1)NC(=S)Nc1ccc(O)c(-c2nc3ccccc3s2)c1
 : i	0.05
- COc1ccccc1N1CCN(C(=O)Cc2ccc(Cl)cc2)CC1
 : i	-1.3
- CNC(=O)c1sccc1SCc1ccc(Cl)cc1Cl
 : i	0.67

Nothing new here: an excerpt of the list.
Values run as follows: KCNQ2 block	KCNQ2 block baseline
- COc1ccccc1N1CCN(C(=O)Cc2ccc(Cl)cc2)CC1
 : i	-1.3
- CNC(=O)c1sccc1SCc1ccc(Cl)cc1Cl
 : i	0.67
